Source: PubChem BioAssay
AF4-AF9 inh: blocks AF4 peptide binding to human AF9; P42568; AlphaScreen, biotin-AF4 peptide binding to FLAG-AF9; inhibition, % at 10 µM; 350,000 compounds, 0.47% hits;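 active = every replicate reaching a set inhibition limit, whatever the replicate mean, cut at about 25% in these data; inconclusive = mean inhibition reaches that limit but some replicates miss it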;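 note: 0% = plate neutral control median and 100% = total signal loss; the record names both 10 and 1 µM as test concentration; the first replicate is given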
Target sequence (P42568 whole entry, looked up): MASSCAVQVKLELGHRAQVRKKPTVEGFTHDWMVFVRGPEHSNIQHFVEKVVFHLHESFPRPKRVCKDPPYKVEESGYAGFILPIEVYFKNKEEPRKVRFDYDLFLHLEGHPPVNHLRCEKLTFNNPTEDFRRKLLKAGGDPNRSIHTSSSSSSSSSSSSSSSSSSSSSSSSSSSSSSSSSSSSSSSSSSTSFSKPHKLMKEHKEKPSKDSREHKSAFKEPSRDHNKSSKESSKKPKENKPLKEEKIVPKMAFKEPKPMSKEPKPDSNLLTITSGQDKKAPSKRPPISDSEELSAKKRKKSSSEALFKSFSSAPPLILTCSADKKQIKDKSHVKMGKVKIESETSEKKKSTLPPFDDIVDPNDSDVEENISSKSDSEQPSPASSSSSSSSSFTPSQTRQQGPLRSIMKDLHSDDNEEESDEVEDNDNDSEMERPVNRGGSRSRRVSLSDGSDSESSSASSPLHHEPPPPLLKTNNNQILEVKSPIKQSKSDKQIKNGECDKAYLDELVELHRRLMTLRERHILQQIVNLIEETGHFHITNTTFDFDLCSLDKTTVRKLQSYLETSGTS
HNF4A DNA FP: change in binding of human HNF4 alpha to DNA; P41235; HNF4a-FITC DNA binding, fluorescence polarization, 1 h; activity change, % at 10 µM; 360,000 compounds, 0.3% hits; in the data active = activity change above about 30%, passing the limit was not always enough;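 note: controls were the assay level and a saturating level of protein; the project sought stronger binding though the title names inhibitors; some compounds called inactive have numbers as strong as hits; positive values seem to mean higher polarization but the record does not say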
ALR H2O2 inh: blocks human ALR sulfhydryl oxidase activity. P55789. purified ALR, DTT oxidation, H2O2 HRP-luminol luminescence. inhibition, % (test concentration not listed). 290,000 compounds, 3.8% hits. AID 485317;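 active = mean and each replicate at 75% or more; inconclusive = only one of the two met; inactive = neither met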;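 note: stock transfer was 7.5 nL into about 7.5 µL; 0% = neutral wells and 100% = wells with inactivated enzyme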
Target sequence (P55789 whole entry, looked up): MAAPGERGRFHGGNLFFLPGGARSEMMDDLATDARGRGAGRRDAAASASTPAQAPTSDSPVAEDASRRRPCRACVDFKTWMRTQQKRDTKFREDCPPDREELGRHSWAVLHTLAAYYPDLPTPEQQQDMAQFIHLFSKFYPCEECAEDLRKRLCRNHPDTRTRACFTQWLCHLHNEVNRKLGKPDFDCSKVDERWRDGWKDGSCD
Vif A3G: inhibitors of Vif binding to APOBEC3G peptide, primary screen, biochemical, TR-FRET, GST-Vif 1-94, biotin-A3G peptide, dose response retest (AID 1117319) | TR-FRET GST-Vif / biotin-A3G peptide binding; higher % means a stronger effect; test concentration not given here; strong numbers were not always called active | inhibition, %; hits with a dose series show IC50 in µM | 260,000 compounds, 0.57% hits;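 active = above the screen mean plus three standard deviations and confirmed in dose response; inconclusive = results disagree or hit not tested in dose response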;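 note: Vif residues 1-94 fused to GST binding biotinylated APOBEC3G peptide 110-148; 0% = full assay without inhibitor and 100% = GST in place of GST-Vif; retest series ran down from 100 µM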
FGF22 binding: binders of recombinant human FGF22 by thermal shift; Q9HCT0; SYPRO orange fluorescence; percent of sucrose octasulfate shift, DMSO zero; calls only at 9.99 µM; 340,000 compounds, 1.5% hits; AID 651658;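 active = melting point raised past a set limit in the mean and every replicate; inconclusive = no clear call; three in four hits are not shown here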
Target sequence (Q9HCT0 whole entry, looked up): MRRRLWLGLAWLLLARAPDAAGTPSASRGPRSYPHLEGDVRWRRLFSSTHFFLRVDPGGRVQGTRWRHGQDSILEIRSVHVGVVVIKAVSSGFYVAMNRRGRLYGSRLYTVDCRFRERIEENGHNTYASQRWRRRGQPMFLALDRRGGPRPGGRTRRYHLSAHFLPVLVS
rRNA inh HTS: selective bacterial rRNA inhibition in E. coli; E. coli WT GFP vs humanized-ribosome RFP mutants, fluorescence, 24 h; hits give low values; DMSO median 0, no signal -100; GFP signal change (wild-type ribosome), % (no concentration beside the values); 350,000 compounds, 1.6% hits; AID 720706;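 active = significant combined selectivity score with lowered wild-type GFP, culture density cut under 30%, mutant RFP and density less affected; inactive = any of these conditions unmet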; note: one replicate is shown; some compounds called inactive have numbers as strong as hits
E coli growth: E. coli growth inhibition; Escherichia coli growth, OD600, 23 h; hits give low values; OD600 absorbance (test concentration not listed); 330,000 compounds, 0.21% hits;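 active = OD600 absorbance below the run mean of sample wells minus 3.6 SD, in any replicate, cut at about 0.56 in these data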;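 note: stock transfer was 300 nL into about 60 µL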
rRNA inh HTS OD600: second read-out of rRNA inh HTS, no call of its own (marks repeat the call); OD600 change, %; measured here: OD600 growth;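 optical density of the mix in the first replicate; 0 = DMSO median and -100 = no signal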
rRNA inh HTS RFP: second read-out of rRNA inh HTS, no call of its own (marks repeat the call); RFP signal change, %; measured here: RFP humanized mutant strains;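 first replicate; 0 = DMSO median and -100 = no signal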
Numbers without * were called inactive; i = inactive; ? = inconclusive; · = not tested or not shown. Not all compounds are listed (hit frequency here may not be typical).

SMILES	AF4-AF9 inh	HNF4A DNA FP	ALR H2O2 inh	Vif A3G	FGF22 binding	rRNA inh HTS	rRNA inh HTS OD600	rRNA inh HTS RFP	E coli growth
Cc1ccccc1OCc1nnc(SCC(=O)NCc2ccccc2)n1C	·	-0.9	-7	0%	·	·	·	·	0.72
CCc1ccc(CNC(=O)Cn2nc(-c3ccccc3)ccc2=O)cc1	-0.4	2.5	·	·	i	16	4	-2.5	0.69
CC(=O)N(C)C[C@H]1Oc2cc(C#CCC3CCCC3)ccc2S(=O)(=O)N([C@@H](C)CO)C[C@H]1C	4.7	·	·	·	i	-9	-44	24	·
CCCN(C)C[C@H]1OCc2cn(nn2)CCCC(=O)N([C@H](C)CO)C[C@H]1C	-18	·	·	·	i	1	5	-2.4	·
CCS(=O)(=O)Nc1ccc2c(c1)C(=O)N(C)C[C@@H](OC)[C@@H](C)CN(CCC(F)(F)F)[C@H](C)CO2	-1.3	·	·	·	i	0	-5	-1.7	·
O=C(Nc1nccs1)c1sc2cc(Cl)ccc2c1Cl	·	-0.6	-3	-8%	·	·	·	·	0.73
Cc1cccc(C)c1NC(=O)CSc1ncnc2[nH]ncc12	-9.0	5.2	4	-18%	i	24	19	4.2	0.68
O=C(NCc1ccccc1Cl)c1ccc2c(=O)n(CC3CCCO3)c(=S)[nH]c2c1 (centres undefined)	0.4	1.6	-10	-7%	i	-1	3	0.6	0.69
Cc1c(Cl)cccc1NC(=O)Cn1nc(C)n2cccc2c1=O	1.7	3.5	1	·	i	9	11	-1.5	0.68
COc1ccccc1NC(=O)N[C@H]1C=C[C@H](CC(=O)N2CCC(Cc3ccccc3)CC2)O[C@@H]1CO	-11	·	·	·	i	-3	-22	35	·
CCOC(=O)N1CCN(C(=O)c2ccccc2NC(C)=O)CC1	-0.5	1.5	4	-4%	i	11	9	0.3	0.68
COc1cc(/C=C2/C(=O)NN(c3cccc(F)c3)C2=O)ccc1OC(=O)c1ccco1	9.5	-1.4	?	-8%	i	0	-1	9.7	0.71
Cc1ccc(S(=O)(=O)Nc2ccc3c(c2)C(=O)N([C@H](C)CO)C[C@H](C)[C@@H](CN(C)C(=O)Nc2ccccc2)OCCCC[C@H](C)O3)cc1	-1.6	·	·	·	i	-3	0	-0.3	·
CCN(C[C@H]1N[C@H](CO)[C@@H]1c1ccc(-c2cccc(C#N)c2)cc1)C(C)=O	2.9	·	·	·	i	1	5	1.1	·
Cc1nn(-c2ccccc2)c(Cl)c1CN(C(=O)CCl)c1cccc2ccccc12	5.7	3.6	-9	·	i	-39	-74	-22	0.76

Whole records, looked up by structure. Values in the order: AF4-AF9 inh, HNF4A DNA FP, ALR H2O2 inh, Vif A3G, FGF22 binding, rRNA inh HTS, rRNA inh HTS OD600, rRNA inh HTS RFP, E coli growth
Entry for Cc1ccc(S(=O)(=O)Nc2ccc3c(c2)C(=O)N([C@H](C)CO)C[C@H](C)[C@@H](CN(C)C(=O)Nc2ccccc2)OCCCC[C@H](C)O3)cc1 : -1.6, ·, ·, ·, i, -3, 0, -0.3, ·
Entry for Cc1c(Cl)cccc1NC(=O)Cn1nc(C)n2cccc2c1=O : 1.7, 3.5, 1, ·, i, 9, 11, -1.5, 0.68
Entry for CCCN(C)C[C@H]1OCc2cn(nn2)CCCC(=O)N([C@H](C)CO)C[C@H]1C : -18, ·, ·, ·, i, 1, 5, -2.4, ·
Entry for CCOC(=O)N1CCN(C(=O)c2ccccc2NC(C)=O)CC1 : -0.5, 1.5, 4, -4%, i, 11, 9, 0.3, 0.68

Next compounds follow:
SMILES	AF4-AF9 inh	HNF4A DNA FP	ALR H2O2 inh	Vif A3G	FGF22 binding	rRNA inh HTS	rRNA inh HTS OD600	rRNA inh HTS RFP	E coli growth
N#CCc1nn(-c2ccccc2)c(N)c1C#N	·	0.7	-9	0%	·	2	6	-0.8	0.72
C=CCNc1oc(-c2ccc(OCC)cc2)nc1C#N	0.4	-3.7	0	6%	i	3	0	-2.3	0.69
CCN(C(=O)CSc1nnnn1-c1ccc(Cl)cc1)C1CCS(=O)(=O)C1 (centres undefined)	1.2	0.1	-3	·	i	0	5	-2.1	0.69
COc1cccc(-c2cnc3c(c2)C(=O)N([C@@H](C)CO)C[C@@H](C)[C@@H](CN(C)CC2CCOCC2)O3)c1	-6.5	·	·	·	i	-1	3	-2.5	·
Cc1ccc(N2CC(C(=O)NCc3ccc(C)n3C)CC2=O)cc1 (centres undefined)	1.5	1.5	-8	·	i	15	-5	0.4	0.73
COCC#Cc1cnc2c(c1)C(=O)N([C@@H](C)CO)C[C@H](C)[C@H](CN(C)C(=O)C1CCOCC1)O2	-3.3	·	·	·	i	2	10	-2.5	·
O=C(c1cccnc1)N1CCN(S(=O)(=O)c2ccc(F)cc2)CC1	1.0	1.4	-4	-6%	i	16	14	0.9	0.66
Cc1ccccc1C(=O)Nc1nnc(S(=O)(=O)N(C)Cc2ccco2)s1	1.1	-0.6	4	4%	i	-5	-8	-1.9	0.65
COc1ccc(/C=C(\NC(=O)c2ccc(C)cc2)C(=O)NCC2CCCO2)cc1 (centres undefined)	-0.4	4.5	3	-1%	·	14	1	-1.7	0.68
CC1Oc2ccccc2C=C1/C=N/NC(=O)c1ccncc1 (centres undefined)	-3.8	4.0	-2	-7%	i	-3	-9	-0.4	·
CCSc1nnc(-c2cccc(S(=O)(=O)N(CC)CC)c2)n1Cc1ccccc1	·	-0.6	-5	22%	·	·	·	·	0.66
O=C(CCN1CCN(c2ccccc2)CC1)Nc1ccc2c(c1)OCO2	·	0.0	35	13%	·	·	·	·	0.63
CO[C@H]1CN(C)C(=O)c2cc(NS(C)(=O)=O)ccc2OC[C@H](C)N(C(=O)C2CCOCC2)C[C@@H]1C	-0.6	·	·	·	i	2	3	0.2	·
COc1ccc(C)cc1NC(=O)C1CCCN(S(=O)(=O)c2ccc(-n3cnnn3)cc2)C1 (centres undefined)	2.3	-0.3	-7	·	i	2	-6	5.1	0.71
Cc1ccccc1-c1ccc([C@@H]2[C@H]3CN(C(=O)c4cccnc4)CCCCN3[C@H]2CO)cc1	4.3	·	·	·	i	4	-8	-3.2	·

Part of the list above, showing only ALR H2O2 inh.
compound,ALR H2O2 inh
O=C(c1cccnc1)N1CCN(S(=O)(=O)c2ccc(F)cc2)CC1,-4
Cc1ccccc1C(=O)Nc1nnc(S(=O)(=O)N(C)Cc2ccco2)s1,4

(list continues)
SMILES	AF4-AF9 inh	HNF4A DNA FP	ALR H2O2 inh	Vif A3G	FGF22 binding	rRNA inh HTS	rRNA inh HTS OD600	rRNA inh HTS RFP	E coli growth
O=C(Nc1ccccc1)c1ccccc1N=Cc1ccccc1O	2.0	6.5	9	0%	i	8	2	2.6	0.72
O=C(Nc1ccnn1C1CCN(Cc2ccccc2)CC1)C1CCCC1	2.8	11	-3	-3%	i	9	3	-0.8	0.69
O=C(COC(=O)c1cccnc1)c1ccc(Cl)cc1	0.9	-1.2	-13	2%	i	3	11	-5.2	0.66
COc1ccc(OC)c(CNc2nc3ccccc3n2CCN2CCCCC2)c1	·	2.2	-2	-2%	·	·	·	·	0.69
CCC(=O)NC(=S)Nc1ccc(NC(=O)COc2ccccc2)cc1	0.2	-0.4	·	19%	i	12	2	-2.7	0.69
O=C(NC1CCCCC1)N[C@@H]1CC[C@@H](CC(=O)N2CCOCC2)O[C@H]1CO	-2.1	·	·	·	i	1	1	2.1	·
CC(=O)Oc1cccc(/C=C2\C=C(c3ccc(C)cc3)OC2=O)c1	-1.7	4.5	-2	1%	i	2	6	-3.8	0.72
O=C(O)Cn1nnc(-c2ccc(OCc3ccccc3Cl)cc2)n1	-3.9	·	4	-2%	i	-19	-25	-2.6	0.68
O=C1NC2(CCC3(CC2)OCCO3)NN1c1ccc(Cl)cc1	0.3	-0.4	-12	3%	i	0	-5	2.5	0.72
CCOC(=O)c1sc(C)c2c(=O)n(Cc3ccc(Cl)cc3)cnc12	0.4	0.0	-8	15%	i	15	17	1.4	·
COc1ccc(NC(=O)c2cc(S(=O)(=O)N(C)C)ccc2N2CCCC2)cc1Cl	2.9	-3.0	-3	?	i	·	·	·	0.68
CC(=O)Nc1ccc2c(c1)OCCOCCOc1cc(NC(C)=O)ccc1OCCO2	1.9	-5.0	-20	?	i	4	7	-7.9	0.73
Cc1cc(NC(=O)COc2coc(CN3CCN(c4ccccc4)CC3)cc2=O)no1	-1.2	-2.8	42	4%	i	-3	7	-1.5	0.7
COc1ccc(C2Nc3cccc4cccc(c34)N2)cc1	5.3	4.2	-22	21%	i	-2	9	-5.8	0.66
CCN1CCN(CCNC(=O)c2cc(Cl)c(NC(=O)C3=C(C)OCCS3)cc2OC)CC1	7.2	5.2	-2	·	i	-2	-12	-2.4	0.72
O=C(C[C@H]1C=C[C@@H](NS(=O)(=O)c2ccc(F)cc2)[C@@H](CO)O1)NCc1ccncn1	-0.5	·	·	·	i	3	-1	2.1	·
C[C@H](NC(=O)c1nc[nH]c1C(=O)N1CCNCC1)C(=O)OCc1ccccc1	-20	-0.7	-13	·	i	8	8	-4.8	0.75
O=C(c1cccs1)n1nc(NCc2ccccc2)nc1NCc1ccccc1	-7.8	0.3	-2	-6%	i	4	-2	4.4	0.68
COc1ccc(S(=O)(=O)N(C)C[C@H]2Oc3ccc(NS(C)(=O)=O)cc3CC(=O)N([C@@H](C)CO)C[C@H]2C)cc1	-3.4	·	·	·	i	1	3	-3.0	·
COCCCN1C(=O)c2ccc(C(=O)Nc3ccc(C)cc3C)cc2C1=O	-1.3	-2.9	-3	0%	i	16	14	-5.6	0.64
CCN(CC)C(=O)c1[nH]cnc1C(=O)Nc1ccccc1	-1.5	12	-1	·	i	9	13	-1.4	0.68
C=CCn1nnnc1SCC(=O)Nc1ccc(OC)cc1	0.5	-0.3	-5	3%	i	2	7	-2.0	0.72
CC(C)CN(C(=O)CN1CCN(c2ccc(F)cc2)CC1)c1c(N)n(CC(C)C)c(=O)[nH]c1=O	·	-1.5	16	·	·	·	·	·	0.71
CCOC(=O)N1CCC(NC(=O)Cn2ncc3ccccc32)CC1	·	0.8	-5	4%	·	·	·	·	0.7
CCOC(=O)C1CCN(CC(=O)c2c(C)[nH]c3ccccc23)CC1	·	2.2	-6	1%	·	·	·	·	0.75
CCc1nc2ccc(C(=O)NCCc3c[nH]c4ccccc34)cn2c1N(C)Cc1ccc(N(C)C)cc1	11	2.0	·	·	i	-5	4	24	·
Cc1noc(-c2ccc(Cl)cc2)c1C(=O)O/N=C(\N)c1ccc(C(C)(C)C)cc1	-0.9	4.5	-2	-5%	i	22	-2	-0.3	·
CCOc1cc(C(=O)OCC(=O)Nc2cccc(C)c2)ccc1OCC(=O)N1CCOCC1	0.3	0.5	-16	·	i	6	9	-1.2	·
O=C(O)c1cccc(NC(=O)c2ccccc2NC(=O)c2cccc([N+](=O)[O-])c2)c1	-3.3	1.4	14	11%	i	-2	9	-0.2	0.66
COc1ccc(N(C)S(=O)(=O)c2cccc(C(=O)Nc3nnc(C)s3)c2)cc1	-0.3	-1.3	-4	-13%	i	24	20	3.8	0.66
CNCCCOc1ccc2c(c1)CCC2	0.3	-3.7	-12	-2%	·	14	6	0.8	·
Cc1ccsc1C(=O)N(Cc1nnc(-c2ccccc2Cl)o1)C1CC1	-5.7	6.0	-3	-6%	i	-10	-17	0.8	0.7
CCCCc1ccc(NS(=O)(=O)c2cccc(C(=O)N3CCNC(=O)C3)c2)cc1	-3.3	-1.2	·	-1%	i	3	0	-0.4	0.69
